Screens: PubChem, ICCB-Longwood Screening Facility, Harvard Medical School
AID504770 = growth inhibitors of E. coli YBA685 in a screen for V. cholerae RctB (chromosome II replication) inhibitors. E. coli YBA685 rctB-dependent plasmid, OD600 growth, 3 h; active compounds read low. z-score (test concentration not listed). 0.27% of 130,000 active. AID 504770;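 active = z-score under -2 on both plates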;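 note: wells of about 30 µL received 100 nL stock; score is relative to mean and SD of the test wells; the first replicate is given; strong numbers were not always called active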
CapD inh = inhibitors of Bacillus anthracis CapD enzyme | purified CapD enzyme, fluorescence intensity read-out; active compounds read low; some hits fall short of the stated cut | z-score (concentration not given with the values) | 0.23% of 140,000 active | AID 492967;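 active = z-score under -4 in either of two replicates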;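 note: stock transfer was 100 nL into about 40 µL; score is relative to mean and spread of the plate; one replicate is shown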
An asterisk follows results filed as active; i = inactive; nt = not tested or not shown. An unsorted share of the library; overall some 0.39% were active at least once.

Order of values – AID504770, CapD inh
Cc1ccc(C(=O)NC(C)Cc2cccs2)c(C)c1 (stereo unspecified)
    -0.3, -0.535
CCN(CC(=O)NC1CCS(=O)(=O)C1)C(=O)Cc1ccccc1F (stereo unspecified)
    -0.55, nt
CCN(CC)S(=O)(=O)c1ccc(Sc2nc(C)cs2)nc1
    0.5, nt
COc1ccc(-c2c3c4n(c(-c5ccc(Br)cc5)nn4c2C(=O)Nc2ccc(Cl)cc2)CCCC3)cc1
    nt, -0.025
CCC(=O)Oc1ccc2c(C(F)(F)F)cc(=O)oc2c1C
    -0.25, 0.685
Cc1cccc(Cl)c1N1C(=O)C(CC(=O)O)SC1=NC1CCCC1 (stereo unspecified)
    -0.5, -1.05
CC(Nc1nc(-c2ccccc2)c2cc(Br)ccc2n1)C(=O)O (stereo unspecified)
    0.9, -0.5
OC1(c2ccccc2)CCN(Cc2ccccc2)CC1
    -0.5, nt
CN1CCN(c2cc(C(=O)Nc3ccc4c(c3)CCC4)c3ccccc3n2)CC1
    nt, -0.09
CCOc1ccc(C2=C(Cl)C=C(c3ccccc3C)c3ccccc3O2)cc1
    nt, 0.43
COc1ccc(CNC(=O)c2cc(=O)[nH]c3ccc(S(=O)(=O)N4CCCCC4C)cc23)cc1 (stereo unspecified)
    0.05, 0.025
Clc1ccc(-c2csc3[n+]2CCS3)cc1
    -0.6, -0.875
O=C(OC1CCOC1=O)c1cccc(Cl)c1Cl (stereo unspecified)
    -0.65, -0.055
O=C1CSC(c2cccs2)N1c1ccccc1 (stereo unspecified)
    -0.2, nt
NC(=O)C1CCN(C(=O)c2cc(-c3ccccc3)on2)CC1
    0.7, nt
CSc1nc(C)cc(=O)[nH]1
    -0.25, 0.555
COc1cc(C(=O)N2N=C(c3ccccc3)CC2c2ccccc2[N+](=O)[O-])cc(OC)c1OC (stereo unspecified)
    nt, -0.01
COc1ccc(C2Nc3ccc4ccccc4c3C3=C2C(=O)CC(c2ccccc2)C3)cc1O (stereo unspecified)
    nt, 1.38
COc1cc(/C=N/NC(=O)Cn2cncn2)ccc1OC(=O)OC(C)(C)C
    nt, -1.08
CC(=O)c1cc(C#N)c(SCc2ccc(Cl)c(Cl)c2)nc1C
    nt, -0.005
CCc1ccc(C(=O)Nc2ccc(N3CCCC3)cc2)cc1
    -0.4, -1.06
CC(C)(Oc1ccc(Cl)cc1)C(=O)Oc1ccc(-c2nnco2)cc1
    3.3, nt
COc1cc2c(cc1OC)CN(Cn1cnc3ccccc31)CC2
    0.1, nt
O=C1/C(=C/c2ccc(O)cc2)SC(=S)N1CCc1ccccc1
    0.05, -0.705
Brc1ccc(-c2ncc(-c3ccccc3)nn2)cc1
    nt, 0.05
CCCc1c(C)[nH]c2nc3ccccc3n2c1=O
    -0.2, 29.9
CC1CCN(C(=S)Nc2ccccc2)CC1
    -0.15, 0.87
CCOC(=O)c1sc(NC(=O)c2cc3n(n2)C(C(F)(F)F)CC(c2ccc4c(c2)OCO4)N3)c(C(=O)OCC)c1C (stereo unspecified)
    nt, 0.89
Cc1ccc(C(=O)NC2CCN(Cc3ccccc3)CC2)cc1
    nt, -0.345
CC(C)(C)C1CC=C2C(C#N)=C(N)C(C#N)(C#N)C(c3ccccc3Cl)C2C1 (stereo unspecified)
    nt, 1.91
CCOc1ncccc1C(=O)Nc1cccc(Cl)c1Cl
    0.35, -0.435
O=S(=O)(c1ccccc1)N1CCN(c2cc(C(F)(F)F)nc3ccccc23)CC1
    0.25, 8.38
CCOC(=O)Cn1c(=O)oc2cc(S(=O)(=O)N3CC(C)CC(C)C3)ccc21 (stereo unspecified)
    0.55, -1.48
O=C1OC(c2ccc([N+](=O)[O-])cc2Cl)=N/C1=C\c1cc(Br)cs1
    nt, 0.455
COc1cc(CNCc2ccc(C)cc2)cc(OC)c1
    -0.4, -0.55
O=C(N[C@@H](Cc1ccccc1)C(=O)Nc1nccs1)c1cccs1
    0.4, nt
CC1CCCCN1C(=O)CSc1ccc2ccccc2c1 (stereo unspecified)
    -1.25, -0.32
O=C1N(CN2CCCCC2)c2ccc(Br)cc2C12OCCO2
    0.35, 0.51
COc1ccc2[nH]c3c(=O)n(Cc4ccccc4Cl)cnc3c2c1
    -0.75, 10.4
O=C(/C=C/c1ccccc1F)CN1C(=O)c2ccccc2C1=O
    0.05, nt
O=C(Nc1c2c(nn1-c1ccccc1)CSC2)C1CC(=O)N(c2ccccc2)C1 (stereo unspecified)
    -0.5, nt
COc1ccc(OC)c(NC(=O)CCC(=O)O)c1
    -0.7, 0.405
Clc1ccccc1-c1nnc(-c2ccncc2)o1
    -0.65, -0.31
c1ccc(CCc2c[nH]c3ccccc23)nc1
    0.85, -0.34
O=C(c1cccs1)n1ccc(-c2ccc3c(c2)CCO3)n1
    0.35, 1.14
COc1ccc(-c2nc(N)ncc2-c2ccc3c(c2)OCCCO3)c(O)c1
    -0.1, nt
CCOC(=O)c1sc(NC(=O)C(CC)OC(=O)c2c3c(nc4ccccc24)CCC3)nc1C (stereo unspecified)
    -0.35, 6.78
O=C(c1cnc2c3ccccc3nn2c1)c1ccccc1O
    -0.6, nt
Cc1oc(C(C)(C)C)cc1C(=O)NC1Cc2ccccc2C1
    -0.85, -0.005
CNC(=O)c1ccsc1NC(=O)CN1C(=O)c2ccccc2C1=O
    -1.15, nt
Cc1ccc(C(CNC(=O)CCc2ccccc2)N2CCN(C)CC2)cc1 (stereo unspecified)
    0.15, nt
O=C(CCNS(=O)(=O)c1ccc2[nH]c(=O)ccc2c1)NC1CCCc2ccccc21 (stereo unspecified)
    -0.05, 5.04
Brc1ccc(-c2nn3c(-c4ccccc4)nnc3s2)cc1
    2.35, -0.115
CCOc1ccc(N2C(=O)/C(=C\c3cc4c(cc3Br)OCO4)S(=O)(=O)C2c2cccc([N+](=O)[O-])c2)cc1 (stereo unspecified)
    nt, -0.24
S=c1[nH]nc(CCCc2n[nH]c(=S)o2)o1
    -0.3, 1.02
COC(=O)c1nn(-c2ccc(OC)cc2)c(=O)cc1Sc1ccccn1
    nt, -0.16
C(=N\c1nc2ccccc2[nH]1)/N(c1ccccc1)c1ccccc1
    -0.85, 0.19
Cc1cc(C)nc(-n2nc(C)c3c2NC(=O)CC3c2ccccc2)n1 (stereo unspecified)
    0.2, -1.2
COc1ccc(Oc2c(Cl)cnn(-c3ccc(Cl)cc3)c2=O)cc1
    nt, -0.14
COc1cc(C2=C/C(=C3/N=C(c4ccco4)OC3=O)c3ccccc3O2)cc(OC)c1OC
    0.5, -0.265

Two successive records out of the list so far, quoted:
Order of values – AID504770, CapD inh
O=C(c1cnc2c3ccccc3nn2c1)c1ccccc1O
    -0.6, nt
Cc1oc(C(C)(C)C)cc1C(=O)NC1Cc2ccccc2C1
    -0.85, -0.005

Following part.
Order of values – AID504770, CapD inh
COc1cc(C=C2C(=O)NC(=S)NC2=O)ccc1OCc1ccc(Cl)cc1Cl
    nt, -1.05
COc1ccc(C2OC(=O)CC2C(=O)NC2CCCC(C)C2C)cc1OC (stereo unspecified)
    -1.65, 0.055
COC(=O)c1ccc(/N=C/c2cc(C)n(C3CCCC3)c2C)s1
    0.35, nt
O=C(NC(=S)Nc1c(Cl)cccc1Cl)c1cccc([N+](=O)[O-])c1
    nt, -0.875
Cc1ccc(NC(=S)Nc2cccc(C(F)(F)F)c2)cc1NS(C)(=O)=O
    1.55, 32
CCOc1ccc(CC(=O)NCCc2c(C)[nH]c3c(C)ccc(F)c23)cc1OCC
    nt, -0.745
CCOc1ccc(C(=O)Nc2cccc3nsnc23)cc1Br
    0, -0.125
CCOC(=O)c1sc(NC(=O)COc2ccc3c(c2)OCO3)nc1C
    -0.75, nt
CC(C)CCNC(=O)c1ccc(CS(=O)c2cccc(Cl)c2)o1 (stereo unspecified)
    -0.5, 0.525
CC(=O)Nc1ccc(C(=O)O)cc1NC(C)=O
    nt, -0.235
O=C1CN(CC(=O)Nc2ccc(Cl)cc2)CCN1
    -0.6, nt
O=C(CCC(=O)N1CCN(C(c2ccccc2)c2ccccc2)CC1)N1CCC(N(C2CC2)S(=O)(=O)c2ccc(Cl)cc2)CC1
    nt, -0.425
CCCCc1nc2ccccc2n1CC(=O)Nc1ccccc1C
    0.45, 0.395
COC(=O)c1ccc(CSc2nnc3ccccn23)o1
    -0.6, nt
CC1(C)Cc2nc3n[nH]c(N)c3cc2CO1
    1.7, -0.295
CC(OC(=O)c1cccs1)C(=O)NCC1CCCO1 (stereo unspecified)
    -0.5, nt
Cc1c(C(=O)N=Nc2c(O)n(CC(=O)O)c3ccccc23)nnn1-c1nonc1N
    -0.05, -1.21
CCc1ccc(C(=O)NC(CC(C)C)C(=O)O)cc1 (stereo unspecified)
    -0.5, 0.35
O=C(c1ccccc1)C(Nc1ccccn1)c1ccccc1 (stereo unspecified)
    1.55, nt
COc1ccccc1C(=O)NNC(=O)c1cc2ccccc2n1C
    nt, 0.51
CC(=O)NC1=NC(=O)/C(=C/c2ccc(-c3ccc(Cl)cc3Cl)o2)S1
    nt, -0.155
CN1CCc2c(sc3c2C(=O)NC(c2ccc(OC(=O)c4ccccc4Cl)cc2)N3)C1 (stereo unspecified)
    1.15, -0.385
CCc1nc2ccccc2n1CCOc1ccccc1
    -0.75, 0.225
CC1CCN(C(=O)C23CCC(C)(C(=O)O2)C3(C)C)CC1 (stereo unspecified)
    1.4, -0.08
Cc1ccc(S(=O)(=O)NCCSc2nncn2-c2ccc(C)c(Cl)c2)cc1
    1.45, nt
CC(C)n1cc(-c2cnccn2)cn1
    nt, 52.9
CCOC(=O)c1cnc2c(C)cc(C)cc2c1Nc1ccc(CC)cc1
    nt, -0.235
COc1ccc(CN2CCN(Cc3ccccc3)CC2)cc1
    -0.65, nt
CCn1c(CNC(=O)c2ccco2)nnc1SC(C)C(=O)Nc1nc(C)c(C)s1 (stereo unspecified)
    -0.4, nt
Cc1ccsc1C1CC(=O)NC(SCC(=O)Nc2ccc(Br)cc2)=C1C#N (stereo unspecified)
    nt, -0.07

Single records, from the list above.
CCOc1ccc(C2=C(Cl)C=C(c3ccccc3C)c3ccccc3O2)cc1 as listed: AID504770: nt; CapD inh: 0.43
O=C(CCC(=O)N1CCN(C(c2ccccc2)c2ccccc2)CC1)N1CCC(N(C2CC2)S(=O)(=O)c2ccc(Cl)cc2)CC1 as listed: AID504770: nt; CapD inh: -0.425

The listing picks up, starting 2 compounds before the break.
Order of values – AID504770, CapD inh
CCn1c(CNC(=O)c2ccco2)nnc1SC(C)C(=O)Nc1nc(C)c(C)s1 (stereo unspecified)
    -0.4, nt
Cc1ccsc1C1CC(=O)NC(SCC(=O)Nc2ccc(Br)cc2)=C1C#N (stereo unspecified)
    nt, -0.07
COc1ccc2c(c1)C(C)CC(C)(C)N2C(=O)Nc1ccc(Cl)c(Cl)c1 (stereo unspecified)
    nt, 1.71
CC1C(O)CCN(C)C1c1ccccc1 (stereo unspecified)
    nt, -0.72
CC(NC(=O)Nc1ccc(S(N)(=O)=O)cc1)(C(F)(F)F)C(F)(F)F
    -0.45, 0.19
O=C(NCn1nnc(-c2ccncc2)n1)c1ccccc1
    -0.55, 0.06
Nc1nc(CCl)nc(N2CCCCC2)n1
    -0.7, -0.865
CCOC(=O)c1ccc(-c2ccc(-c3nc4cc(C(=O)OCC)ccc4n3CC)o2)cc1
    2.8, nt
CCOc1cc(N2CCOCC2)c(OCC)cc1NC(=O)c1ccccc1
    -0.4, 0.605
CCN1CCN(CCCNC(=O)c2oc3ccc(S(=O)(=O)N4CCOCC4)cc3c2C)CC1
    0.1, -0.045
Cc1ccc2[nH]c(=O)c(CNC3CCCC3)cc2c1
    -0.9, nt
COc1ccc(C(N)CCc2ccc(C)o2)cc1 (stereo unspecified)
    -1.7, 0.745
CCCN(CCC)C(=O)c1ccc2c(c1)N(Cc1ccccc1)C(=O)CS2=O (stereo unspecified)
    0.45, 0.375
Cc1ccc(OC(=O)NC2(C(F)(F)F)Oc3ccccc3O2)cc1
    -0.15, 0.325
Cc1ccc(-n2cccc2)c(NC(=O)C(c2ccccc2)C2CCCC2)c1 (stereo unspecified)
    -0.45, 47.2
COc1ccccc1C(=O)Nc1nnc(-c2cccc(C)c2)s1
    0.95, i
CCOC(=O)c1cc(C#N)c(N2CCN(c3ccc(OC)cc3)CC2)[nH]c1=O
    nt, -0.525
CCC([N+](=O)[O-])C1(O)C(=O)Nc2ccccc21 (stereo unspecified)
    nt, -0.61
FC(F)(F)c1nc(NCCc2ccccn2)c2ccccc2n1
    -1.25, nt
O=C(c1ccco1)c1cn(-c2ccccc2)nc1C(=O)c1nc2ccccc2s1
    1.5, -0.985
CC1CN(S(=O)(=O)c2cn(C)c(=O)n(C)c2=O)CC(C)O1 (stereo unspecified)
    -0.65, nt
CCCOc1ccc(-c2nn(-c3ccccc3)cc2/C=C(\C#N)C(=O)NCc2ccco2)cc1
    -1.7, nt
CCOC(=O)C1=C(C)NC(=O)NC1c1cc(C)cc(N(CCCl)CCCl)c1 (stereo unspecified)
    nt, 0.305
Cc1c(C(=O)O)oc2c1C(O)CC(C)(C)C2 (stereo unspecified)
    -0.75, nt
CNC(=O)O/N=C(\N)Cc1csc2ccccc12
    -0.3, -0.945
O=C(CSc1nc2cccnc2s1)NNS(=O)(=O)c1cc(C(F)(F)F)cc(C(F)(F)F)c1
    nt, 0.43
CCOC(=O)C1=C(CCl)OC(N)=C(C#N)C1c1cccc(Cl)c1Cl (stereo unspecified)
    nt, -0.385
C=CCOC(=O)COc1ccc2c3c(c(=O)oc2c1)CCC3
    0.5, 11.2
C(=N\Nc1nc2ccccc2[nH]1)/C1CCCCC1
    -1.45, nt
